Assay outcomes (PubChem)
MgrA DNA FP – S. aureus MgrA-DNA binding modulation. 84,000 compounds, 0.13% hits. inhibition, %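 (about 10 µg/mL by stock and volumes)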. fluorescence polarization. AID 602314;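 active = above 50% in either of two replicates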;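 note: 0% = protein plus DNA without compound and 100% = DNA alone without protein; higher means less MgrA bound to DNA so lower polarization; one replicate is shown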
Sa helicase inh – S. aureus DNA helicase inhibition; purified S. aureus helicase, fluorescence unwinding assay; about half of the hits fall short of the stated cut; inhibition, %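 (tested at about 80 µM)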; 120,000 compounds, 0.05% hits; AID 485395;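 active = both duplicates at 50% or more, or one of them with a favoured structure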;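 note: 0% = mean of negative control wells and 100% = mean of positive control wells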
* hit, by the source's call; . = no result given. Only part of the results is shown, so the mix of outcomes need not match the whole.

SMILES	MgrA DNA FP	Sa helicase inh
CCC(Sc1nc2ncccc2o1)C(=O)NCCc1ccccc1 (stereo unspecified)	.	-2.0
CCOc1cccc(OCC(F)(F)F)c1C#N	-3.4	.
COc1cccn(Cc2n[nH]c(=S)n2C)c1=O	-0.6	.
Cc1ccc(C(=O)N(C(C)C)C(C)C)c(Cl)c1	-0.3	6.0
COc1ccc(Cl)cc1S(=O)(=O)N1CCC(C(=O)NCc2ccco2)CC1	0.8	2.0
CC(C)=C(C#N)n1cnc2ccccc21	-1.8	-17.0
COc1ccc(/C=C2/SC(=O)N(CCc3nnc(N)s3)C2=O)cc1	.	-17.0
CCC(Sc1ccccn1)C(=O)Nc1ccc(Cl)cn1 (stereo unspecified)	.	-2.0
CN(C(=O)c1ccco1)c1ccccc1C(=O)O	-8.7	-2.0
O=C(/C=C/c1ccc(Cl)cc1)Nc1cccc(Cl)c1	-2.9	.
O=C(O)c1c(-c2ccccc2)[nH]n(-c2ccccc2)c1=O	0.8	23.0
CC(c1nnnn1CCc1ccccc1)N1CCN(c2cccc(C(F)(F)F)c2)CC1 (stereo unspecified)	-0.1	2.0

Shown in markdown: entries from further up
| SMILES | MgrA DNA FP | Sa helicase inh |
| --- | --- | --- |
| COc1ccc(/C=C2/SC(=O)N(CCc3nnc(N)s3)C2=O)cc1 | . | -17.0 |
| CCOc1cccc(OCC(F)(F)F)c1C#N | -3.4 | . |
| Cc1ccc(C(=O)N(C(C)C)C(C)C)c(Cl)c1 | -0.3 | 6.0 |
| CN(C(=O)c1ccco1)c1ccccc1C(=O)O | -8.7 | -2.0 |
| CC(c1nnnn1CCc1ccccc1)N1CCN(c2cccc(C(F)(F)F)c2)CC1 (stereo unspecified) | -0.1 | 2.0 |

Record cards, from the list above.
COc1ccc(/C=C2/SC(=O)N(CCc3nnc(N)s3)C2=O)cc1 is listed with MgrA DNA FP = .; Sa helicase inh = -17.0
Cc1ccc(C(=O)N(C(C)C)C(C)C)c(Cl)c1 is listed with MgrA DNA FP = -0.3; Sa helicase inh = 6.0

Additional results
SMILES	MgrA DNA FP	Sa helicase inh
O=C1CC(c2ccccc2)c2c(c3ccccc3[nH]c2=O)O1 (stereo unspecified)	-2.5	3.0
O=c1[nH]nc(-c2cccc(Br)c2)[nH]1	-1.6	-4.0
O=C(OCC1COc2ccccc2O1)c1cc2ccccc2[nH]1 (stereo unspecified)	.	-7.0
O=C(N/N=C/c1c(O)ccc2ccccc12)c1ccccn1	.	-48.0
CC(=O)N1CCN(C(=O)C2CC(=O)N(Cc3ccc(C)cc3)C2)CC1 (stereo unspecified)	.	12.0
N#C/C(=C\c1ccccc1)C(=O)N1CCN(Cc2ccccc2)CC1	.	-3.0
Cc1ccc(C(CC(=O)Nc2ccccn2)N2Cc3ccccc3C2=O)cc1 (stereo unspecified)	.	-22.0
COc1ccc(-c2nc3c(c(=O)c4ccccc4n3C)c(=O)n2Cc2ccco2)cc1	.	7.0
O=C(Nc1ccc(Cl)cc1)C1(S(=O)(=O)c2ccc(Cl)cc2)CC1	-0.2	6.0
CCCN1C(=O)C(O)(C2CC(=O)CC(C)(C)O2)c2ccccc21 (stereo unspecified)	1.1	-1.0
O=C(O)CN1C(=O)C2C3C=CC(C3)C2C1=O (stereo unspecified)	.	-20.0
CCc1nnc(NC(=O)c2cc(S(=O)(=O)N3CCc4ccccc43)cn2C)s1	-0.1	4.0
Cc1ccccc1C(=O)OCC1CCCN2CCCCC12 (stereo unspecified)	-1.4	3.0
O=C(/C=N/OCc1cc(=O)n2ccsc2n1)Nc1cccc(C(F)(F)F)c1	.	10.0
Cc1cccc(-c2nc3scc(-c4ccccc4)n3n2)c1	.	14.0
COc1ccccc1NC(=O)c1nnc2c(-c3ccccc3)c(C)nn2c1C	0.7	-3.0
CCOc1ccc(-c2c(C#N)c(N)nc3sc(C(=O)c4ccc(OC)cc4)c(N)c23)cc1	0.9	.
O=S(=O)(c1cccc(-c2nnc(-c3ccccc3)o2)c1)N1CCCC1	-1.1	4.0
O=C(O)/C(=C\c1ccncc1)c1ccc(S(=O)(=O)N2CCCCC2)s1	.	-4.0
Cc1nnc2ccc(NCCC3=CCCCC3)nn12	-0.9	5.0
COc1ccc(NC(=O)CSCc2nc(-c3ccc(C(C)C)cc3)no2)cc1	.	-13.0
N#Cc1ccccc1N/C=C(\C(N)=S)C(F)(F)F	-1.3	14.0
Cc1ccc(-n2ncc3c(=O)n(Cc4c(F)cccc4Cl)cnc32)cc1C	.	1.0
CC(C)SC1=NN2CCCC(=O)N=C2S1	.	-13.0
CC(=O)N1N=C2CCCCC2C1C(C)C (stereo unspecified)	.	14.0
CCOC(=O)CC1=Nc2ccccc2NC(=O)C1	.	12.0
CCCCN(CC)C(=O)Nc1ccc2c(c1)N(CC)C(=O)c1ccccc1S2	0.4	8.0
CC(=O)Oc1ccc2cc(-c3nc4ccccc4n3C)c(=O)oc2c1	0.2	4.0
CCOC(=O)c1ccc(NC(=O)C2CC(=O)N3CCCN=C3S2)cc1 (stereo unspecified)	16.6	4.0
O=C(COc1nsnc1N1CCOCC1)N1CCOCC1	.	18.0
Nc1ccc(-c2ccccc2C(=O)O)cc1	-0.6	-1.0
CCOc1cc(/C=C(\C#N)C(=O)NCc2ccco2)ccc1O	.	9.0
CCCCC1(O)CC(C)(C)N([O])C(C)(C)C1	0.2	3.0
CC1=C(C#N)C(C(F)(F)F)(C(F)(F)F)N=C(Cc2ccccc2)N1	-2.4	12.0
CCOC(=O)c1ccc(NC(=O)CN2N=C(c3ccc(OC)cc3)CCC2=O)cc1	.	-19.0
FC(F)(F)Oc1ccc(N=Cc2ccc(Cl)cc2)cc1	-0.2	.
N#CC(C1CC=CCC1)N1CCOCC1 (stereo unspecified)	0.3	.
N#CCc1nc2n(n1)Cc1ccccc1-2	-0.6	-10.0
N#CCCN(C1CCCCC1)S(=O)(=O)c1ccc(Br)cc1	-1.0	.
Cc1cc(NC(=O)Nc2ccc(Cl)cc2)n(-c2ccccc2)n1	.	-12.0
CCCNC(=O)CC1Oc2ccccc2NC1=O (stereo unspecified)	-0.1	6.0
COc1ccc(-c2cc3c(=O)oc4ccccc4c3[nH]2)cc1	-1.8	.
CN(C)c1ccc(N/C=C/C(=O)c2ccco2)cc1	-1.1	2.0
CC1=CCC2C(=O)N(c3ccc(C4CCCCC4)cc3)C(=O)C2C1 (stereo unspecified)	1.5	.
CC(C)CC(=O)Nc1nn2c(COc3ccccc3)nnc2s1	.	-20.0
O=C(CCc1ccccc1)N1CCc2ccccc21	.	-4.0
CCOC(=O)c1sc(I)c(C#N)c1C	.	-21.0
CCC[C@@H]1C[C@@H](C(=O)N[C@H]([C@H]2O[C@H](SC)[C@H](O)[C@@H](O)[C@H]2O)[C@H](C)O)N(C)C1	-1.1	.
O=C(Cc1ccc(S(=O)(=O)N2CCOCC2)s1)Nc1ccccc1N1CCOCC1	.	-26.0
CCN1CCN(c2ncnc3c2cnn3-c2ccccc2)CC1	.	-15.0
Cc1ccnc(NCc2cccc3ccccc23)c1	-0.4	-4.0
OC1(C(F)(F)F)CC(/C=C/c2ccc3c(c2)OCO3)=NN1 (stereo unspecified)	-0.6	.
Cc1ccc(C(=O)OC(C)C(=O)NC2CCCCC2)cc1S(=O)(=O)N1CCCCC1 (stereo unspecified)	.	-5.0
COc1ccc(OC)c2c1CC(C)(C)NC2=O	-0.8	4.0
Cc1ccc(-n2ncc(C#N)c2N)cc1	2.2	.
O=C(Nc1nccs1)c1cccc(N2C(=O)C3C4C=CC(C4)C3C2=O)c1 (stereo unspecified)	0.8	-10.0
CCOC(=O)Cc1c(-c2ccccc2)c2cc(Br)ccc2[nH]c1=O	.	6.0
COc1cccc(C2=Nc3ccccc3C2=O)c1	1.1	8.0
O=C(c1ccc(-c2ccccc2)s1)N1CC=C(c2ccccc2)CC1	-2.0	.
CCNc1nnc(-c2ccc(C)cc2)s1	-1.8	14.0

Remaining list, next part
SMILES	MgrA DNA FP	Sa helicase inh
CS(=O)(=O)CS(=O)(=O)NCc1ccc(Cl)cc1	-3.3	.
O=C1C=C(N2CCOCC2)C(=O)N1c1ccc(Cl)cc1	3.4	11.0
NC1(C(=O)O)CCCCC1	.	-26.0
COC(=O)C(C)Sc1nc2c(c(=O)n1-c1ccccc1)SCC2 (stereo unspecified)	.	8.0
COC(=O)Cc1c(C)c2cc(Cl)c(O)cc2oc1=O	.	7.0
O=C(NO)c1cccc2c1-c1ccccc1/C2=N/O	-4.9	-4.0
Nc1ccc(OC(F)F)cc1	.	-30.0
COC(OC)c1ccc2c(N)c(C(=O)c3ccc(Cl)cc3)sc2n1	-1.2	.
NNC(=O)c1cc(C23CC4CC(CC(C4)C2)C3)[nH]n1	-0.2	1.0
O=C(NC1CC1)c1ccc(CN2C(=O)CCn3nc(-c4ccccc4)cc32)cc1	.	-3.0
Cc1ccc(OCC(O)CN2C(C)CCCC2C)c(C)c1 (stereo unspecified)	0.3	13.0
COc1ccc(C=NCc2ccccc2)cc1OC	2.7	.
Cc1cc(C(=O)COn2nnc3ccc(S(C)(=O)=O)cc32)c(C)n1C	.	7.0
COc1ccc(NC(=O)c2ccco2)cc1OC	-1.3	5.0
N#CCN(CC#N)C(=O)Cc1coc2ccc3ccccc3c12	-0.9	3.0
O/N=C1/c2ccccc2CCC1Cn1ccnc1 (stereo unspecified)	-3.0	.
CN1C(=O)C(C#N)=C(c2ccccc2)/C(=C/c2ccc(-c3ccc(F)cc3)o2)C1=O	.	5.0
Cc1cc(-c2onc(C)c2C(=O)Sc2ccccc2)no1	.	-12.0
COC(=O)c1ccc(Nc2nc(-c3ccc(Br)cc3)c(C)s2)cc1	-0.1	16.0
O=C(CCCN1C(=O)/C(=C/c2ccc(Br)cc2)SC1=S)Nc1nccs1	-0.9	.
Cc1ccc(C)c(CSC2=NCCN2C(=O)c2ccc(S(=O)(=O)N3CCOCC3)cc2)c1	4.1	15.0
CC(=O)N/C(=C/c1ccccc1Br)C(=O)NCc1ccc(C)cc1	-0.6	3.0
S=c1cc(-c2ccccc2)oc2ccccc12	-3.5	.
Cc1c(C#N)c(NC(=O)CN2CCc3ccccc3C2)n(Cc2ccco2)c1C	.	5.0
C=CCN1C(=O)/C(=C\c2cccs2)SC1=Nc1ccccc1	3.3	9.0
CCN(CC)C(=O)C1CC(c2ccccc2OC)=NO1 (stereo unspecified)	.	-14.0
CCc1ccccc1NC(=O)CC(O)(C(=O)OC)C(F)(F)F (stereo unspecified)	-0.4	5.0
c1ccc(Sc2ncnc3sccc23)cc1	-1.3	.
CCOc1cc(-c2nn3c(-c4ccoc4C)nnc3s2)cc(OCC)c1OCC	4.0	10.0
Cc1onc(-c2ccccc2)c1-c1ccnc(-c2ccc(Cl)cc2)n1	-0.9	.
Cc1cc(C(=O)NC(C)c2ccccc2)c(C)o1 (stereo unspecified)	.	-9.0
O=C1S/C(=C\C=C\c2ccco2)C(=O)N1CCCc1ccccc1	-2.2	5.0
O=C(O)c1cccc(NNC(=O)c2ccc3c(c2)OCCO3)c1	.	-8.0
CCn1c(C)c(C)c2cc(C(=O)NCCN3CCN(C)CC3)ccc21	.	13.0
NNC(=O)c1ccc2nonc2c1	2.8	.
O=C(CCN1C(=O)COc2ccccc21)NC1CCCCCC1	-2.7	-9.0
CC1SCC(NC(=O)Nc2ccc(Cl)cc2)CS1 (stereo unspecified)	-2.6	.
CCc1c(C)nc2cc(-c3ccc(OC)c(OC)c3)nn2c1NCC(C)(C)CN(C)C	1.1	6.0
CCC1(COC(NC(=O)c2ccc(Cl)cc2Cl)(C(F)(F)F)C(F)(F)F)COC1	1.0	7.0
COCC(=O)N(C)C1(c2nnnn2CCOC(=O)Nc2ccc(Cl)cc2)CCCC1	0.5	9.0
Cc1ccc2[nH]c(=O)cc(C(=O)OCC(=O)c3ccc(F)cc3)c2c1	0.1	8.0
Cc1cc(=O)n2nc(N3CCCC(C(=O)N4CCN(c5ccccc5)CC4)C3)sc2n1 (stereo unspecified)	-0.9	-4.0
CCOC(=O)C1=C(C)N=c2s/c(=C\c3cc(Br)c(O)c(OC)c3)c(=O)n2C1c1ccc(OC)c(OC)c1 (stereo unspecified)	1.2	.
CCc1nc(SCC(=O)Nc2cc(C)on2)n[nH]1	-0.7	16.0
Cc1ccc(N2CS(=O)(=O)CC2=O)cc1	-0.7	.
CCC1SC(CC)C(=O)N(CC(=O)Nc2ccc(F)cc2F)C1=O (stereo unspecified)	.	3.0
CCNc1sc(C(=O)OCC)c(N)c1C#N	.	4.0
CCC(CO)NC(=S)NC1CC2CCC1C2 (stereo unspecified)	3.1	.
COc1ccc(CCNCC(O)Cn2ccc3ccccc32)cc1OC (stereo unspecified)	-2.0	.
COc1nc2ccccc2cc1/C=C/C(=O)O	.	26.0
CC(C)OC(=O)c1cc2c(ccn2-c2ccc(F)cc2)n1C	0.1	3.0
COC(=O)C12C3CCC4C5C3C1C5(C(=O)OC)C42 (stereo unspecified)	.	-5.0
Cc1cc(C)nc(SCCC(=O)O)n1	.	8.0
Cn1nccc1NC(=O)CSCC(=O)O	-2.0	.
O=C(CC(c1ccccc1)c1ccccc1)c1nnc(-c2ccccc2)o1	.	5.0
CCOC(=O)N1CCc2c(sc3c2c(=O)n(CCc2ccccc2)c(=O)n3C)C1	.	-18.0
CCCc1c(C(=O)Nc2cc(-c3ccccc3)nn2C)cnn1-c1ccccc1	.	-4.0
CCS(=O)(=O)c1ccc2oc(SCC(=O)Nc3ccccc3C(F)(F)F)nc2c1	.	21.0
COC(=O)c1c(C)[nH]c(C(=O)COn2nnc3ccc(S(=O)(=O)N(C)C)cc32)c1C	.	1.0
NC(N)=NC(N)=Nc1ccccc1Cl	-2.7	.

Continuation:
SMILES	MgrA DNA FP	Sa helicase inh
O=C(Cc1ccccc1)Nc1ccc2ccccc2c1	0.2	.
Cc1ccc(C(C)C)c(OCC(O)CNC(C)C)c1 (stereo unspecified)	.	-22.0
CCc1nnc2n1N=C(c1ccc3c(c1)OCCO3)CS2	.	-16.0
O=C(c1cc2ccccc2o1)N1CCCc2ccccc21	-0.9	6.0
